Rce1 inhib: yeast Ras-converting enzyme inhibition | Q03530 | yeast membranes, quenched prenylated peptide cleavage fluorescence | calls only | 0.27% of 290,000 active | AID 2563;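 active = fall in fluorescence gain of 50% or more versus controls, with final raw signal at or below 3038400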;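 note: plate controls were neutral control wells for no effect and wells lacking membranes for full effect; tested at 10 µM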
Target sequence (Q03530 whole entry, looked up): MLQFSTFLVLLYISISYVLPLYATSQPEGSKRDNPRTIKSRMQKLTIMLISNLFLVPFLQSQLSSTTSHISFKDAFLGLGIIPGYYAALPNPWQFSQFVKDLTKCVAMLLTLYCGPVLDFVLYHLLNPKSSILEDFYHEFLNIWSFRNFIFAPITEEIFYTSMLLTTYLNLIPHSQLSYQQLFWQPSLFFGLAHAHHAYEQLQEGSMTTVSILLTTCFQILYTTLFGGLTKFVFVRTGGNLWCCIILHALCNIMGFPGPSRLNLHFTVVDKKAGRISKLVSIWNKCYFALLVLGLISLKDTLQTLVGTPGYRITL
eIF4H inh: inhibitors of RNA binding by human eIF4H. Q15056. eIF4H fluorescence polarization binding assay. inhibition, % at 35 µM. 0.94% of 290,000 active. AID 2012;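 active = 50% or more with normal probe brightness, or confirmed in later tests; about a fifth of its hits are not listed in these tables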;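 note: calls also rest on retests at 20 µM and on dose response follow-up; 0% = protein and probe with vehicle and 100% = probe without protein; strong numbers were not always called active; many hits fall short of the cut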
Env fusion inh: blocks HIV Env-driven cell-cell fusion; 1.1% of 360,000 active; inhibition, % at 12.3 µM; HeLa-JRFL Env/CEM21 cell fusion, luciferase;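 active = mean replicate inhibition score of at least 50 and every replicate individually at or above 50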;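 note: 0% = plate neutral controls and 100% = maraviroc near 300 nM; one replicate is shown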
MT1-MMP act inh: blocks activation of human MT1-MMP; AID 651647; HT1080 RFP-PRO-GFP cells, GFP/RFP ratio fluorescence, overnight; percent of plate control window, DMSO zero; GFP/RFP ratio change, % at 20 µM; 0.061% of 360,000 active;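 active = GFP/RFP ratio change of at least 30% with cell ATP level not reduced by more than half and red fluorescence within 50% of control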; note: strong numbers were not always called active
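Assay system: HT1080 RFP-PRO-GFP cells | Dosing: 20 µM single dose, 1% DMSO | Incubation: Cells overnight before dosing, compound overnight, 37 °C, 5% CO2 | Evaluation: GFP/RFP fluorescence ratio | Control set: DMSO-only wells and HT1080 RFP-L50D-GFP cell wells as references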
CSC inhib: cancer stem cell inhibition | inhibition, % at 7.5 µM | 1.1% of 300,000 active | AID 2717 | cancer stem cell-like cells viability, luminescence;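 active = mean at 75% or more and at least half the replicates too; tested in HMLE shEcad cells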;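 note: 0% = median of negative and 100% = median of positive control wells; the first replicate is given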
PABP FP inh: PABP-poly(A) binding inhibition; PABP-poly(A) RNA binding, fluorescence polarization; inhibition, % at 35 µM; 1% of 290,000 active; AID 2014;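 active = 50% or more with normal probe brightness, or confirmed in later tests; about a fifth of its hits are not listed in these tables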;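 note: calls also rest on retests at 20 µM and on dose response follow-up; controls were probe without protein and protein plus probe with vehicle; some compounds called inactive have numbers as strong as hits; many hits fall short of the cut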
UUG fidelity: yeast start codon fidelity modulation. S. cerevisiae UUG-firefly luciferase reporter, luminescence/redox ratio. activity score, % at 18.7 µM. 0.13% of 350,000 active;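 active = replicate mean at a twofold rise or more, about +100% in these data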;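 note: firefly luciferase made from a UUG start codon reports start codon fidelity; reporter light over untreated wells divided by growth signal over untreated wells; some hits fall short of that in this replicate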
eIF4H inh retest: second read-out of eIF4H inh, no call of its own (marks repeat the call); inhibition, %; compound at 20 µM; confirmation average;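 mean of two retest wells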
PABP FP inh retest: also measured in PABP FP inh; calls as there; inhibition, %; compound at 20 µM; confirmation repeats;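 mean of two retest wells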
MT1-MMP act inh RFP: recorded beside MT1-MMP act inh, whose call it bears; RFP signal change, %; measured here: RFP expression control read;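 0 = vehicle wells; hits needed this value within 50% of zero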
Starred values were filed as active, the others as inactive; i = inactive; · = no result given; + = active, no number.

SMILES	Rce1 inhib	eIF4H inh	Env fusion inh	MT1-MMP act inh	MT1-MMP act inh RFP	CSC inhib	PABP FP inh	UUG fidelity	others
COc1ccc(-c2cc(C(=O)Nc3cc(C)ccc3O)no2)cc1	i	-2	-6	0	0	5	-2	-17
O=C(Nc1cccc(Cl)c1)Nc1sccc1-c1nc2ccccc2s1	i	79	-1	4	0	76*	12*	-4	eIF4H inh retest=42;PABP FP inh retest=71*
O=C(NNC(=O)c1ccc2ncccc2c1)c1ccc(Cl)cc1	·	-1	5	-3	0	-17	-1	·
CC(C)C[C@H](NC(=O)c1nc[nH]c1C(=O)N1CCNCC1)C(=O)OCc1ccccc1	+	·	14	-3	0	5	·	6
O=S(=O)(c1ccc2oc(=S)[nH]c2c1)N1CCCCC1	i	-7	11	1	0	-10	11	·
CCOC(=O)C1CCN(C(=O)CCC(=O)NNc2nc3ccccc3c3nc(C)nn23)CC1	i	-6	4	5	0	-16	-1	5
COc1ccc(CCNC(=S)Nc2cccc3ccccc23)cc1	i	-2	-14	5	8	15	-11	·
COc1cc(OC)cc(-c2nc(SCC(=O)Nc3ccccc3F)n[nH]2)c1	i	0	4	7	-4	2	11	-17
N#CC1=C(N)N(c2ccccc2)C2=C(C(=O)CCC2)C1c1ccccc1 (stereo not given)	i	28	-66	-3	1	9	16	9
O=C(O)c1cccc(S(=O)(=O)Nc2ccccc2-c2ccccc2)c1	i	-4	1	-4	-7	22	-9	·
Cc1ccc(S(=O)(=O)Nc2nc(C)c(C(=O)Nc3ccccc3)s2)cc1	i	5	20	3	5	-6	19	4
CCCCCC1CC(COc2ccccc2)OC1=O (stereo not given)	i	-2	1	0	1	-7	-2	7
COc1cc2c(cc1OC)C(c1ccccc1)N(C(=O)CSCC(=O)O)CC2 (stereo not given)	i	-13	-5	0	0	-19	7	·
COc1ccc(NC(=O)CSC2CC(=O)N(c3ccc4c(c3)OCCO4)C2=O)cc1 (stereo not given)	·	-12	12	-6	-8	-2	-3	8
O=C(c1ccc2snnc2c1)N1CCOCC1	i	-15	·	3	0	-1	-1	-3
CCc1ccc(CN(C)Cc2nc(Cc3cccc(C(F)(F)F)c3)no2)nc1	i	0	20	-1	-1	-8	0	·
CC(C)(C)C(=O)N1CCC(O)(CS(=O)(=O)c2ccc(Cl)c(Cl)c2)CC1	i	-9	-17	0	-1	-15	6	-4
O=C(/C=C/c1ccc(OC(F)F)cc1)OCC(=O)N1CCN(C(=O)c2ccco2)CC1	i	6	15	1	6	-11	6	·
COc1ccccc1-n1c(C)nnc1SCC(=O)NCc1ccccc1	i	3	-43	2	2	-9	-2	-13
O=C(Nc1nc(-c2ccc3c(c2)OCO3)cs1)C1CC1	i	-3	-66	-1	-5	7	-13	-4
Cc1oc2c(c(C)cc3oc(=O)c(CC(=O)N[C@H](C(=O)O)C(C)C)c(C)c32)c1C	i	-9	7	4	-1	-3	4	8
Cc1c(C(=O)Nc2cccc(Cl)c2)oc2ccc(S(=O)(=O)N3CCC4(CC3)OCCO4)cc12	i	-2	·	-16	-17	-2	1	-9
O=C(O)c1ccc(NCc2cccnc2)cc1	i	-10	-35	0	-1	-9	18	-30
O=C(O)CCCN1C(=O)NC2NC(=O)NC21 (stereo not given)	i	-1	·	0	-4	-9	1	-14
NC(=O)Cc1nc2scc(-c3ccc(Cl)cc3)c2c(=O)[nH]1	i	4	-16	-7	-8	1	-2	-14
CCOC(=O)c1cn2c(C)cccc2n1	i	-4	-8	2	2	-9	12	·
COc1ccc(NC(=O)N2CCCC2C(=O)NCCc2ccccc2)cc1 (stereo not given)	i	1	-23	1	2	21	3	-15
COc1cc(OC)cc(-c2c(-c3ccsc3)c3cc(Br)ccc3n2C)c1	·	·	-37	-4	-1	40	·	-14
COC(=O)N/N=C\c1cc2c(cc1Br)OCO2	i	20	-4	-1	0	11	-1	-4
CC(=O)c1ccc(NC(=O)Cn2cnc(S(=O)(=O)N3CCCCC3)c2)cc1	i	-6	-5	-7	-3	-12	-1	-7
Cc1ccc(NC(=O)NC2CC(=O)N(c3ccc4c(c3)OCCO4)C2)c(C)c1 (stereo not given)	i	·	·	-3	2	-10	·	·
Cc1cc(OCC(=O)NNC(=O)c2cccs2)ccc1Br	i	-4	-10	-4	-2	·	-3	-8
CN(CC(=O)Nc1ccccc1C(F)(F)F)C(=O)c1cc(Cl)nc2ccccc12	i	·	10	-2	5	·	·	·
CCOc1cc2[nH]c(=S)n(CCC(=O)NCc3ccc(OC)cc3)c(=O)c2cc1OCC	i	-4	-31	-2	-1	14	-15	-7
COC(=O)[C@H]1C[C@H](OC(=O)NC2CCCC2)[C@@]2(O)CN(S(=O)(=O)c3ccc(C)cc3)CC2[C@H]1C(=O)OC (stereo not given in full)	·	·	-123	-4	2	·	·	-1
CC(=O)OCCN(CCCn1c(-c2ccncc2)nc2ccccc21)c1nc(-c2ccc(C)cc2)cs1	i	-11	20	-3	1	-4	-26	-24
O=C(NCC(=O)N1CCN(c2ccccc2O)CC1)c1ccc(Br)o1	i	·	-13	-4	2	-10	·	-9
Cc1sc2nc(CSCC(=O)N(C)c3ccccc3)[nH]c(=O)c2c1C	i	12	-18	-9	2	-11	6	-9
CCc1cc2c(C)cc(=O)oc2cc1Oc1ncccc1[N+](=O)[O-]	i	-7	·	·	·	-10	-4	·
Cc1cc(C)cc(N(CC(=O)NC2CCCC2)C(=O)CNC(=O)c2ccco2)c1	i	6	-2	0	2	-5	12	-15
CC(=O)Nc1scc(-c2ccccc2)[n+]1-c1ccc(C)cc1	i	3	8	-5	1	27	1	·
CC(C)=C(NC(=O)c1ccco1)C(=O)NCCc1nc2ccccc2[nH]1	i	-5	·	4	7	0	-8	-7
OCC[C@@H]1C[C@H](O)[C@@H](O)[C@]2(OCc3ccc(CO)cc32)O1	·	·	22	5	4	·	·	0
CC(=O)C1=C(C)Nc2ncnn2C1c1ccccc1F (stereo not given)	i	-1	21	1	2	-6	-19	-20
CSc1nc(-c2ccccc2)c(C#N)c(=O)n1C	i	-2	5	-5	-1	-1	5	-5
COC(=O)c1c(NC(=O)c2ccccc2)sc(C(=O)c2ccccc2)c1C	i	-8	·	-13	0	-11	7	-9
CC1CCCCN1CCCNC(=O)c1ccc(NC(=O)C2=CSCCO2)cc1 (stereo not given)	i	-2	-4	-2	3	-7	-2	9
O=C(NCCOCCNC(=O)OCc1ccccc1)OCc1ccccc1	i	-4	7	-1	1	17	46	4
Cc1cc(-c2nnc(SCC(=O)Nc3cccc(F)c3)n2N)n[nH]1	i	-5	5	4	8	-4	-9	-26
CS(=O)(=O)c1ccc(Cl)c(NC(=O)COC(=O)c2cccc(S(=O)(=O)N3CCCC3)c2)c1	i	·	1	4	1	-6	·	-10
(next part)
SMILES	Rce1 inhib	eIF4H inh	Env fusion inh	MT1-MMP act inh	MT1-MMP act inh RFP	CSC inhib	PABP FP inh	UUG fidelity	others
CCCCOC(=O)c1ccc(NC(=O)COC(=O)C2CC2C)cc1 (stereo not given)	·	·	-126	1	2	·	·	7
CCOC(=O)c1cnc2c(Cl)cccc2c1NCCN(C)C	i	-4	-17	-2	3	-2	6	-11
Cc1ccc(C(=O)OCC(=O)N(C)c2ccccc2)cc1C	i	-21	3	3	2	1	0	-7
O=c1[nH]c2cnccc2n1-c1ccccc1	·	6	·	0	-1	1	3	-5
COc1ccc2c(c1)c([C@@H]1[C@H](C)[C@H]3CCCC[C@H]3CN1S(=O)(=O)c1ccc(C)cc1)cn2C	·	·	2	-9	-23	·	·	-16
CCOC(=O)c1ccc(NC(=O)CSc2nnc(C3CCCCC3)n2C)cc1	i	-5	-58	5	4	21	-2	-16
COc1cccc(/C=N/NC(=O)CC(=O)NCCc2ccccc2)c1OC	i	12	10	2	4	1	9	·
CCCOCCOC(=O)C1=C(C)NC(=O)NC1c1cc(Cl)c(O)c(OC)c1 (stereo not given)	i	-4	·	1	4	-49	4	-34
COc1ccc(CC(=O)Nc2ccc(C)c(S(=O)(=O)N3CCCCCC3)c2)cc1	·	·	9	-6	-14	·	·	-7
CCC[C@@H]1C[C@@]1(CCC)[C@@H](NC(=O)c1ccccc1)c1ccc(C(=O)OC)cc1	i	-5	7	-20	-16	30	-7	9
COc1ccc(Br)c(-c2nnc(CS(=O)(=O)c3ccccc3)o2)c1	i	-2	-20	-1	0	·	0	-19
CCCC(=O)NCCc1cc2ccc(C)c(C)c2[nH]c1=O	i	0	-9	13	25	-8	8	-17

In the list so far, these have four or more nitrogen atoms.
SMILES	Rce1 inhib	eIF4H inh	Env fusion inh	MT1-MMP act inh	MT1-MMP act inh RFP	CSC inhib	PABP FP inh	UUG fidelity	others
CC(C)C[C@H](NC(=O)c1nc[nH]c1C(=O)N1CCNCC1)C(=O)OCc1ccccc1	+	·	14	-3	0	5	·	6
CCOC(=O)C1CCN(C(=O)CCC(=O)NNc2nc3ccccc3c3nc(C)nn23)CC1	i	-6	4	5	0	-16	-1	5
COc1cc(OC)cc(-c2nc(SCC(=O)Nc3ccccc3F)n[nH]2)c1	i	0	4	7	-4	2	11	-17
CCc1ccc(CN(C)Cc2nc(Cc3cccc(C(F)(F)F)c3)no2)nc1	i	0	20	-1	-1	-8	0	·
COc1ccccc1-n1c(C)nnc1SCC(=O)NCc1ccccc1	i	3	-43	2	2	-9	-2	-13
O=C(O)CCCN1C(=O)NC2NC(=O)NC21 (stereo not given)	i	-1	·	0	-4	-9	1	-14
CC(=O)c1ccc(NC(=O)Cn2cnc(S(=O)(=O)N3CCCCC3)c2)cc1	i	-6	-5	-7	-3	-12	-1	-7
CC(=O)OCCN(CCCn1c(-c2ccncc2)nc2ccccc21)c1nc(-c2ccc(C)cc2)cs1	i	-11	20	-3	1	-4	-26	-24
CC(C)=C(NC(=O)c1ccco1)C(=O)NCCc1nc2ccccc2[nH]1	i	-5	·	4	7	0	-8	-7
CC(=O)C1=C(C)Nc2ncnn2C1c1ccccc1F (stereo not given)	i	-1	21	1	2	-6	-19	-20
Cc1cc(-c2nnc(SCC(=O)Nc3cccc(F)c3)n2N)n[nH]1	i	-5	5	4	8	-4	-9	-26
CCOC(=O)c1ccc(NC(=O)CSc2nnc(C3CCCCC3)n2C)cc1	i	-5	-58	5	4	21	-2	-16

Bioassay records deposited in PubChem BioAssay by several laboratories.
